IL-2 act: IL-2 activation; IL-2 activation reporter assay, cell-based qHTS; stimulated with anti-CD3/CD4/CD28 beads; in transgenic mouse T cells; activation, % (series mostly up to about 46 µM); hit rate 0.065% among 360,000; AID 652025; in the data active = activation above about 50%; inconclusive = mostly about 30% to 49%; also: 0% is about no effect
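Readout: EGFP and DsRed signals by fluorescent plate cytometry. Unstimulated transgenic mouse T cells received compound 60 min before antibody-bead stimulation, then incubated 18 h at 37 degrees C.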
PLK1 PBD inh: blocks phosphopeptide binding to human PLK1 polo-box domain | P53350 | Plk1 PBD binding of FITC phosphopeptide, fluorescence polarization | Potency, µM, for inactives: max response, negative = inhibition, actives largely listed as inhibitors | hit rate 2.8% among 360,000 | AID 720504; also: potency is read from the fitted curve at half-maximal effect; series mostly up to about 57 µM; % is scaled to controls: 0 for no effect and ±100 for the full control effect; nearly all actives have a fitted effect of over 65% in size
EPAC1 antagonist: EPAC1 (human) antagonism. AID 720709. Potency, µM (titrated, usually from 115 µM), for the others: top-dose activity change, negative = inhibition, hits mostly inhibitors. EPAC1 GEF assay, Rap1b-BODIPY-GDP exchange fluorescence. O95398. hit rate 0.14% among 360,000;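 also: potency is read from the fitted curve at half-maximal effect; plate controls were vehicle for no effect and positive control for full effect; nearly all actives have a fitted effect of over 50% in size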
FUS suppressor: rescues growth of FUS-expressing yeast; S. cerevisiae FUS-expressing, growth rescue, OD600, 24 h; Potency, µM (series often up to 76.6 µM), for inactives: at the highest dose growth rescue (activation), most hits filed as activators; hit rate 0.24% among 390,000;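 also: potency is read from the fitted curve at half-maximal effect; plate controls were DMSO vehicle for no effect and reference control for full effect; nearly all actives have a fitted effect of over 55% in size; some results filed as inactive show a strong effect at the top dose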
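Steps: raffinose overnight preculture; dilution to OD 0.005 in 2% galactose minimal medium; compound addition (concentration series); 24hr at 30C, 99% humidity; absorbance read at 600 nm.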
EPAC1 ag: agonists of human EPAC1. Potency, µM (series often up to 154 µM), without a hit: top-dose activation, actives largely listed as activators. AID 720707. EPAC1 agonist qHTS, biochemical assay; response scale: 100% = response to 6.5 mM cAMP. hit rate 0.073% among 360,000. O95398; also: potency is read from the fitted curve at half-maximal effect; nearly all actives have a fitted effect of over 60% in size
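Multi-concentration qHTS readout: loss of Rap1B-bound BODIPY-GDP fluorescence driven by 100 nM EPAC1 with excess GDP (50 uM), monitored kinetically at room temperature; agonist response expressed relative to 6.5 mM cAMP.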
Abeta yeast res: restores growth of yeast expressing A-beta42 peptide | yeast expressing A-beta42, growth rescue, OD600, 48 h; response scale: 0% DMSO, 100% iron-clioquinol control | Potency, µM (titrated, usually from 46.1 µM), inactives show top-dose growth rescue, hits mostly activators | hit rate 0.063% among 410,000; also: potency is read from the fitted curve at half-maximal effect; nearly all actives have a fitted effect of over 55% in size
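Yeast A-beta toxicity model in growth medium with pinned compounds, 48 h at 30 C; growth read as absorbance at 600 nm. Normalized to FeCl3/clioquinol equimolar mix (positive) and DMSO (negative).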
* = called active by the depositor; ? = inconclusive; . = not tested or not shown; & = joins results of further samples; [ ] = remark or other dose. Unless noted, calls follow the shape of the dose curve; as a rule, active = well fitted curve in the direction sought with a large enough effect; inconclusive = small, poorly fitted or top-dose-only effect, or another doubt; inactive = no such curve, though single readings can be large; an effect the other way counts as inactive or inconclusive. Not all compounds are listed. The share of hits here may be higher or lower than overall.

mol | FUS suppressor | EPAC1 antagonist | PLK1 PBD inh | IL-2 act | Abeta yeast res | EPAC1 ag
CCN1CCN(c2oc(/C=C/c3ccccc3)nc2C#N)CC1 | -5% | -7% | -10% | 0.9 | 3% | 6%
CCOC(=O)/C(=N\O)C1=NC(C)(C)Cc2ccccc21 | 8% | 2% | -18% | 0.2 | -16% | 2%
N[C@@H](Cc1ccc(O)c(O)c1)C(=O)O | -22% | -9% | -8% | 0.3 | -6% | 3%
COC(=O)[C@H](C(C)C)N(Cc1ccccc1)S(=O)(=O)CCNC1CCCC1 | -6% | 3% | -5% | -0.1 | -5% | -17%
COC(=O)[C@@H](CC(C)C)NS(=O)(=O)N(Cc1ccccc1)[C@@H](CC(C)C)C(=O)OC | ? | -28% | -3% | -3.0 | 8% | -22%
CC1(C)Cc2ccccc2C(/C(C#N)=N/O)=N1 | -14% | -10% | 3% | -0.9 | 0% | 8%
COc1ccc(/C(C)=N/NC(=O)c2ccc(NS(=O)(=O)c3cccs3)cc2)cc1 | -10% | -17% | -7% | -0.4 | 15% | -3%
NC12CC3CC(CC(C3)C1)C2 | -46% | -5% | 0% | 0.1 | -23% | -7%

Structures from the list above with sulfur:
mol | FUS suppressor | EPAC1 antagonist | PLK1 PBD inh | IL-2 act | Abeta yeast res | EPAC1 ag
COC(=O)[C@H](C(C)C)N(Cc1ccccc1)S(=O)(=O)CCNC1CCCC1 | -6% | 3% | -5% | -0.1 | -5% | -17%
COC(=O)[C@@H](CC(C)C)NS(=O)(=O)N(Cc1ccccc1)[C@@H](CC(C)C)C(=O)OC | ? | -28% | -3% | -3.0 | 8% | -22%
COc1ccc(/C(C)=N/NC(=O)c2ccc(NS(=O)(=O)c3cccs3)cc2)cc1 | -10% | -17% | -7% | -0.4 | 15% | -3%

Continued.
mol | FUS suppressor | EPAC1 antagonist | PLK1 PBD inh | IL-2 act | Abeta yeast res | EPAC1 ag
CC(C)NC(=O)NC(=O)COC(=O)Cc1c(F)cccc1Cl | 3% | 2% | -16% | -1.1 | 16% | 13%
Cc1cc(N/N=C/c2ccccc2[N+](=O)[O-])nc(-n2nc(C)cc2C)n1 | 8% | -15% | -12% | -0.3 | ? | -6%
CCCC(=O)N1CCC1(C)C(=O)Nc1ncc(C(=O)OC)s1 (stereo not drawn) | ? | 7% | 3% | -0.4 | 8% | 7%
COC(=O)C1=NN(c2ccccc2)C2C(=O)N(c3ccccc3OC)C(=O)C12 (stereo not drawn) | 22% | 5% | 8% | 0.3 | 14% | -8%
Nc1ccc(C(=O)Oc2ccc([N+](=O)[O-])cc2)cc1 | -11% | -2% | 0% | 0.5 | -5% | 1%
CC1=CCC(C(=O)O)C(C(=O)Nc2ccc(-c3nc4ccc(C)cc4s3)cc2)C1 (stereo not drawn) | 22% | -12% | ? | -0.7 | 6% | -2%
COc1ccccc1NC(=O)C1=C(C)Nc2nnnn2C1c1cccc(Br)c1 (stereo not drawn) | -6% | 6% | 0% | -2.4 | 11% | -6%
O=C(Nc1nnc(CCN2CCCCC2)s1)c1ccccc1Cl | 15% | 3% | -1% | -1.7 | 0% | -10%
COc1ccccc1C1/C(=C(/O)c2ccccc2)C(=O)C(=O)N1CC(C)O (stereo not drawn) | 2% | 4% | 1% | 0.7 | ? | -11%
COc1ccc(Br)cc1/C=N/n1c(C)nnc1C | 26% | 14% | -9% | 0.7 | -9% | 7%
Cc1ccc(-c2c(NCCc3ccccc3)c(=O)c2=O)cc1 | 20% | -35% | -10% | -1.6 | -24% | 1%
Cc1c(OC(C)C(=O)N2C[C@H]3C[C@@H](C2)c2cccc(=O)n2C3)ccc2c3c(c(=O)oc12)CCCC3 (stereo partly drawn) | 4% | -3% | -5% | -0.3 | -3% | -4%
O=C(CSc1nccc(=O)[nH]1)NCc1ccco1 | 12% | -12% | ? | 0.4 | 0% | -3%
Fc1ccc(-c2csc(-c3cccnc3)n2)cc1F | -1% | 6% | -9% | -1.5 | -41%[inhibitor] | 7%
CCCCOCCO | 0% | -22% | 0% | -1.4 | -10% | -11%
CC(=O)C1=C(C)Nc2ncnn2C1c1cccc(OCc2ccccc2)c1 (stereo not drawn) | 13% | -4% | -6% | -2.4 | 4% | -8%
COC(=O)c1cccc(CN2C(=O)SC(Nc3ccc(C)cc3)C2=O)c1 (stereo not drawn) | -4%&41% | -22% | ? | 2.2 | ? | 10%
COc1ccc(/C=N/Nc2cc(C)nc(-n3nc(C)cc3C)n2)cc1 | 21% | -20% | -5% | 0.1 | 22% | -7%
CS(=O)(=O)c1ccc(C(=O)OCC(=O)NC(=O)Cc2ccccc2)cc1 | -4% | -8% | -7% | 0.8 | 1% | -1%
COc1ccc(C2NC(c3ccc(OC)cc3OC)C(C)C(=O)C2C)c(OC)c1 (stereo not drawn) | -34% | 0% | -1% | -1.1 | 9% | 6%
COc1cc(OC)c(OC)cc1/C=N/n1c(C)nnc1C | 5% | 23% | -4% | -0.5 | -12% | 5%
COc1ccc2cc3cc(C(=O)NCCN4CCc5ccccc5C4)sc3nc2c1 | . | -6% | -10% | -5.5 | -21% | -2%
O=C(N[C@@H](Cc1ccccc1)C(=O)NCCc1c[nH]c2ccccc12)c1ccco1 | 21% | -30% | -17% | 0.1 | 8% | 4%
CCCCNC(=O)c1nc(C2CCNCC2)oc1-c1ccccc1 | 1% | 10% | 3% | -0.4 | 8% | -19%

Single records, from the list above. Values in the order: FUS suppressor, EPAC1 antagonist, PLK1 PBD inh, IL-2 act, Abeta yeast res, EPAC1 ag
Listed for O=C(N[C@@H](Cc1ccccc1)C(=O)NCCc1c[nH]c2ccccc12)c1ccco1 : 21%, -30%, -17%, 0.1, 8%, 4%
Listed for COc1cc(OC)c(OC)cc1/C=N/n1c(C)nnc1C : 5%, 23%, -4%, -0.5, -12%, 5%

The list goes on:
mol | FUS suppressor | EPAC1 antagonist | PLK1 PBD inh | IL-2 act | Abeta yeast res | EPAC1 ag
O=C(CCCN1CCC(O)(c2cccc(C(F)(F)F)c2)CC1)c1ccc(F)cc1 | -27% | 14% | -5% | 0.5 | -28% | -15%
C/C(=N\NC(=O)c1ccccc1[N+](=O)[O-])c1c(O)cc(C)oc1=O | 17% | -10% | 6% | -4.3 | -6% | -8%
CCOC(=O)[C@@H](C)N(Cc1ccc(OC)cc1)S(=O)(=O)N(Cc1ccccc1)[C@H](C(=O)OC)C(C)C | 31% | ? | -3% | -1.5 | 5% | 2%
Cc1cccc(/C=C2/Sc3ccc(C(=O)N4CCOCC4)cc3NC2=O)c1 | 0% | 12% | 4% | 1.2 | -5% | -12%
Cc1cc(NS(=O)(=O)c2ccc(N)cc2)no1 | -21% | -12% | -13% | 0.3 | -4% | 5%
COc1ccc(OC)c(NC(=O)CSc2sc3c(O)cc(=O)[nH]c3c2C#N)c1 | 29% | ? | ? | -0.9 | 0% | -6%
CC(=O)N/C(=C\c1ccccc1)C(=O)OC(C)C(=O)Nc1ccccc1F (stereo not drawn) | -4% | -14% | -10% | 0.6 | -5% | 0%
CS(=O)(=O)c1ccc(-c2csc(-c3cccnc3)n2)cc1 | -15% | 9% | -7% | 0.3 | 2% | 14%
Cc1cc2c(cc1S(=O)(=O)N(C)c1ccccc1)NC(=O)CO2 | 16% | -29% | -3% | 0.0 | 2% | -2%
CN(C)c1oc(/C=C/c2ccccc2)nc1C#N | 0% | 3% | -8% | -1.5 | 7% | 8%
O=C(N/N=C/c1ccc([N+](=O)[O-])cc1)c1ccc(NS(=O)(=O)c2cccs2)cc1 | 11% | -8% | 0% | 0.6 | -8% | 2%
O=C(NNC(=O)c1ccccc1F)c1cccc(-n2cccc2)c1 | 23% | ? | ? | -3.4 | 1% | 1%
CCCCCSc1nc(O)cc(=O)[nH]1 | -13% | -20% | -10% | 0.8 | -3% | 2%

Compound activity (PubChem)
